High-throughput results: PubChem, National Center for Advancing Translational Sciences (NCATS)
CtBP-E1A inh: inhibitors of CtBP/E1A interaction; 340,000 tested, 0.49% active; AlphaScreen GST-E1A/His-CtBP binding, 1536-well; stronger effect = lower value; control for the full effect not named in the record; activity change, % (concentration not given with the values); in the data active means activity change below about -65%; inconclusive means about -30% to -65%; inactive means above about -30%; further: on the % scale 0 is the no-effect control and ±100 the full control effect
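GST-E1A and His-tagged CtBP (125 nM each as 5X stock) were preincubated with pin-transferred compound for 2 h at 37 °C in the dark, then glutathione donor and nickel acceptor beads were added for 1 h before AlphaScreen reading.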
D2 ag: agonists of human D2 dopamine receptor (beta-arrestin); P14416; AID 624465; activation, % (no concentration beside the values); 360,000 tested, 0.084% active; DiscoveRx PathHunter D2 beta-arrestin, luminescence, 90 min; 100% = 57 uM dopamine signal; in the data active = activation above about 40%; inconclusive = about 15% to 40%; inactive = below about 15%; further: compound concentration not given in the record; the text of the record calls up to 30% inactive
Target sequence (P14416 whole entry, looked up): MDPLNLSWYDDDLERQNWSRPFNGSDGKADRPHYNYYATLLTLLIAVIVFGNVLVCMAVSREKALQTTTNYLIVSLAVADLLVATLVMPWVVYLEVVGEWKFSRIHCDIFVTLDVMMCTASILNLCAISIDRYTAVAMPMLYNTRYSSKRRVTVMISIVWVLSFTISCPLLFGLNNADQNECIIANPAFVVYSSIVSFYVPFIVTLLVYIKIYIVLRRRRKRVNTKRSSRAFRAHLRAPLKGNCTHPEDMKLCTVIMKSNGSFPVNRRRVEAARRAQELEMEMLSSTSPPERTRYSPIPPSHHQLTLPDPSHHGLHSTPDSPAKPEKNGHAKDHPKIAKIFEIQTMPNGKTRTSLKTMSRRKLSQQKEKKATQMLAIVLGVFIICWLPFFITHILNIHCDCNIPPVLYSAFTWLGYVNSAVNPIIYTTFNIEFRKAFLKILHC
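DiscoveRx PathHunter D2 beta-arrestin cells (2,100/well) attached overnight, then compound-stimulated 90 min at 37 C in HBSS/10 mM HEPES/0.1% Tween-20 buffer; beta-galactosidase complementation read by luminescence after 1 h at ambient temperature. Dopamine 57 uM final (EC100) as control.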
Six1-Eya2 inh: blocks human Six1 binding to Eya2. Q15475+O00167. AlphaScreen GST-Six1/His-Eya2 binding, biochemical; stronger effect = lower value; control for the full effect not named in the record. activity change, % (concentration not given with the values). 360,000 tested, 0.56% active; in the data active = activity change below about -65%; inconclusive = about -30% to -65%; inactive = above about -30%; further: on the % scale 0 is the no-effect control and ±100 the full control effect
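GST-Six1 + His-Eya2 (5X stock: 250/500 nM); Tris pH 8.0, 300 mM NaCl, 0.05% BSA, 0.02% Tween 20; GSH donor/Ni acceptor beads; 1 h 37 °C dark; AlphaScreen readout.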
gsp agonist: agonists of gsp mutant (McCune-Albright syndrome); gsp mutant cells, cAMP HTRF, 30 min; control for the full effect not named in the record; Potency, µM (titrated, usually from 76.9 µM), inactives show at the top dose activation (cAMP increase), hits mostly activators; 340,000 tested, 0.13% active; AID 624287; active = well fitted activation curve with a large enough effect; inconclusive = small, poorly fitted or top-dose-only effect, or another doubt; inactive = no such curve, though single readings can be large or run the other way; cell line not stated here;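 further: phosphodiesterase inhibitor Ro 20-1724 added with compounds to block cAMP breakdown; potency means the concentration at half of the fitted maximal effect; nearly all actives have a fitted effect of over 60% in size; about a fifth of the inactives were tested at one dose only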
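Cells in DMEM/10% FBS with G418 were pretreated with compounds in DMSO plus […] (300 uM stock) for 30 min at 37C. cAMP was measured by HTRF (cAMP-d2 plus anti-cAMP antibody-K) after 30 min at room temperature.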
D2 potentiator: potentiates the human D2 dopamine receptor allosterically; P14416; DiscoveRx D2 beta-arrestin cells, luminescence, 90 min; 100% = 57 uM dopamine signal; potentiation, % (no concentration beside the values); 360,000 tested, 0.23% active; active = potentiation of 50% or more; inconclusive = 30% to 50%; inactive = 30% or less;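 further: compound concentration not given in the record; tested on top of an EC20 dose of dopamine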
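PathHunter beta-arrestin assay in DiscoveRx D2 cells. Compounds were added with an EC20 of dopamine (50 nM final) for 90 min at 37 deg C. Luminescence was read 1 h after detection reagent, with 57 uM dopamine as the EC100 control.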
gsp antag: antagonizes gsp, the McCune-Albright syndrome mutation; gsp-mutant cells, cAMP HTRF, 30 min; control for the full effect not named in the record; Potency, µM (doses to about 76.9 µM), for the others: at the top dose activity change, negative = inhibition, actives largely listed as inhibitors; 340,000 tested, 0.4% active; AID 624288; active = falling curve of any shape with a large fitted effect; inconclusive = falling curve, mostly with a smaller effect; inactive = flat or rising curve; cell line not stated here;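 further: intracellular cAMP measured with PDE inhibitor Ro 20-1724 present during compound exposure; potency means the concentration at half of the fitted maximal effect; on the % scale 0 is the no-effect control and ±100 the full control effect; nearly all actives have a fitted effect of over 65% in size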
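G418-selected cells were plated in DMEM/10% FBS for 16-24 h at 37C, then treated with compounds plus the PDE inhibitor […] (300 uM solution added) for 30 min at 37C. Intracellular cAMP was measured by HTRF after 30 min lysis at room temperature.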
The depositor's hits bear a star; ? = inconclusive; nt = no result given; & = joins results of further samples; [ ] = another dose, or the depositor's remark.

CtBP-E1A inh	mol	D2 ag	Six1-Eya2 inh	gsp agonist	D2 potentiator	gsp antag
nt	COC(=O)/C=C/C1=CN(Cc2ccccc2)CCC1=O	-1.1	-2	-29%	-15	-1%
nt	CCc1noc(C)c1C(=O)OCC(=O)NCc1ccccc1OC	-1.2	12	-7%	-9	-7%
0	COc1ccccc1C(=O)COC(=O)Cc1c[nH]c2ccccc12	-1.5	-14	8%[15.4 µM]	11	6%
-2	CCOc1ccc(C(=O)N[C@H](C(=O)O)C(C)C)cc1	-0.1	12	3%	8	1%
-16	Cc1ccc(C)c(S(=O)(=O)N2CCCCC2CCNC(=O)C(=O)NCc2cccnc2)c1 (stereo not drawn)	-0.7	4	-80%[inhibitor]	18	-2%
-4	CN1CCN(c2ccccc2NC(=O)c2ccc(F)cc2)CC1	-1.9	1	15%	-14	-13%
5	N#Cc1ccccc1OCC(=O)NCC1(N2CCCCC2)CCCCC1	2.0	0	?	-10	1%
-3	O=C(Cn1cnc([N+](=O)[O-])n1)c1ccc(O)c(O)c1	7.0	-19	21%	-9	6%
-3	CCC(C)NCC(=O)Nc1ccc(-c2nc3cc(NC(=O)CNC(C)CC)ccc3o2)cc1 (stereo not drawn)	-1.8	2	-7%	15	-1%
2	O=C(NC1(Cc2ccccc2)CCN(CCCc2ccccc2)C1=O)c1ccccc1 (stereo not drawn)	0.9	1	nt	2	?
5	COc1ccc(C(=O)OCC(=O)NC2CC2)cc1S(=O)(=O)N(C)Cc1ccccc1	-2.7	6	3%[15.4 µM]	7	5%
7	Cc1ccc(S(=O)(=O)N2CCOCC2)cc1C(=O)Nc1nc(-c2cccnc2)cs1	1.9	0	-7%	-13	7%
6	CC1(C)CC(=O)C2=C(C1)OC(N)=C(C#N)C2Cc1ccccc1 (stereo not drawn)	0.2	2	2%	-13	-19%
5	CCN(Cc1ccccc1)C(c1ccc(C(F)(F)F)cc1)c1nnnn1C(C)(C)C (stereo not drawn)	-3.2	1	-41%[inhibitor]	-8	-1%
-2	COc1cc(NC(=O)c2noc3c2CCC3)c(OC)cc1Cl	2.2	-15	-24%	-3	7%
11	Cc1cccc(N2C(=O)c3ccccc3C2=O)n1	-2.7	6	22%[15.4 µM]	-5	1%
0	O=C(/C=C/c1ccc([N+](=O)[O-])cc1)Nc1cccnc1	3.0	1	-25%	-6	5%
nt	CCCc1c(O)nc(SCC(=O)N2CCCCC2)[nH]c1=O	0.9	-2	-11%	8	5%
8	Cc1c(Cl)cccc1NC(=O)CCN1CCOCC1	-4.1	-1	0%	-4	16%
-16	O=c1cc(O)c2sc(Nc3cccc(C(F)(F)F)c3)nc2[nH]1	4.3	1	-13%	-14	-2%
-17	CN(C)c1oc(-c2ccccc2Cl)nc1P(=O)(c1ccccc1)c1ccccc1	-4.4	-8	?	-15	-25%
-8	CC(NC(=O)c1ccc([N+](=O)[O-])cc1Cl)C1CC2CCC1C2 (stereo not drawn)	1.3	-9	-13%[15.4 µM]	10	-20%
8	O=C1OC(c2ccccc2)C2(CCCC2)C(=O)C12CCCC2 (stereo not drawn)	-2.1	0	0%	8	5%
0	Cc1cc(C)c(Cn2c(=O)n(CCCC(=O)NCc3ccco3)c(=O)c3sccc32)c(C)c1	-3.6	8	32%	-14	34%
-6	Cc1c(NC(=O)Nc2ccc(Cl)c(Cl)c2)c(=O)n(-c2ccccc2)n1C	-4.6	0	1%	-8	4%

Going on with the list.
CtBP-E1A inh	mol	D2 ag	Six1-Eya2 inh	gsp agonist	D2 potentiator	gsp antag
6	Cc1coc2cc3oc(=O)c(CCC(=O)NCCCN4CCOCC4)c(C)c3cc12	5.6	1	nt	-3	3%
-20	Ic1ccc(N2CCN(Cc3c[nH]c4ncccc34)CC2)cc1	-7.0	-13	nt	-38	36%[activator]
5	COc1ccccc1CNC(=O)COc1ccccc1C	2.1	2	-18%	-5	-4%
18	CCOc1cc(S(=O)(=O)NCc2cccs2)ccc1Cl	-1.7	1	-18%	-7	3%
0	O=C(NCc1ccco1)C(Cc1ccccc1)N1C(=O)c2ccccc2C1=O (stereo not drawn)	-1.2	19	29%	-2	-2%
-6	COc1ccc(Cl)cc1NC(=O)COC(=O)Cc1cc(OC)c(OC)c(OC)c1	-3.5	-1	-9%	-5	-5%
40	COc1nc(-c2ccccc2Cl)ccc1C#N	-2.1	29	-29%	-13	-22%
-1	CCN(CC)C(=O)[C@H]1CC(CC(=O)NCCCN(C)C)C(=O)N2CCc3c([nH]c4ccc(OC)cc34)[C@]12C (stereo partly drawn)	0.5	-1	nt	-14	12%
-3	Cc1ccc(C(=O)OCC(=O)NC2CCCCC2)cc1S(=O)(=O)N1CCCCC1	9.5	-1	-25%	2	8%
1	On1nnc2c3ccccc3c3ccccc3c21	-3.4	1	7%[15.4 µM]	10	1%
-5	O=C(Nc1ccc(-c2nc3ccccc3s2)c(OC(=O)c2ccccc2)c1)c1ccccc1	-0.5	8	1%[15.4 µM]	-6	8%
-3	CC(=O)Nc1ccc(-c2csc(NC(=O)c3ccc(C)o3)n2)cc1	-2.0	-14	7%	-3	-16%
nt	CCN(CC)CCN(C(=O)/C=C/c1cccs1)c1nc2ccc(Cl)cc2s1	-0.8	12	2%	-5	-4%
-2	COc1cc(-c2cc(N)n(S(=O)(=O)c3ccc(F)cc3)n2)cc(OC)c1OC	3.1	-13	-1%	0	-2%
9	O=C(CSc1ncn[nH]1)Nc1ccc(Cl)c(Cl)c1	2.6	-3	-28%	-6	-14%
4	COc1cc(NC(=O)c2cnc(N)o2)cc(C(=O)Nc2cccc(C(F)(F)F)c2)c1	4.5&1.7	-1&-11	-106%&-34%[inhibitor]	-5&-1	-22%
0	O=C(NC(Cc1c[nH]c2ccccc12)C(=O)NCCCN1CCOCC1)c1cccs1 (stereo not drawn)	-2.7	4	-11%[15.4 µM]	-10	10%
?	CN(C)c1ccc([C@@H]2[C@@H]([N+](=O)[O-])[C@H]3C=Cc4ccccc4N3[C@H]2C(=O)c2ccc(Cl)cc2)cc1	3.5	-24	-3%	19	-16%
11	NNC(=O)c1ccc2c(c1)S(=O)(=O)NNC2=O	-7.7	5	-6%[15.4 µM]	-9	8%
-1	COc1ccc(C2/C=C\CC(OCc3ccccc3)CC(=O)N2Cc2cccc(F)c2)cc1 (stereo not drawn)	-2.6	3	nt	-10	-13%
8	CCCCN(C)C1CCN(C(=S)Nc2cccc(OC)c2)CC1	-1.3	-5	36%	-10	12%
6	Cc1ccc(Oc2c(F)c(F)nc(N3CCCC3)c2F)cc1	-9.3	19	-53%[inhibitor]	13	6%
6	O=C(O)CCCCNS(=O)(=O)/C=C/c1ccccc1	-4.0	6	?	-3	8%
3	CCc1ccc(NC(=O)CSc2nc3ncc(Br)cc3[nH]2)cc1	-2.9	0	18%	-10	-8%
6	CC(=O)Nc1sc(C)c(C)c1C(=O)OCC(=O)N(CCC#N)c1cc(C)cc(C)c1	-1.3	-3	3%	-28	-11%

Continued.
CtBP-E1A inh	mol	D2 ag	Six1-Eya2 inh	gsp agonist	D2 potentiator	gsp antag
2	CS(=O)(=O)Nc1ccccc1C(=O)O	-1.1	6	-7%	-3	6%
nt	Cc1c(-c2cccc(Cl)c2)nc2ccccc2c1C(=O)OCC(=O)N(C)C1CCS(=O)(=O)C1 (stereo not drawn)	1.2	-6	-2%	-9	-13%
-29	COc1ccc(-c2csc(NC(=O)c3cccc(S(=O)(=O)N4CCN(C)CC4)c3)n2)cc1	0.1	?	5%	-1	-16%
nt	COc1ccc(C(=O)NCCOc2cccc(OC)c2)cc1	-10	0	-2%	-8	-4%
1	COc1ccc(CC(=O)OCC(=O)N2CCN(S(=O)(=O)c3ccc(C)cc3C)CC2)cc1	-3.6	2	-46%	-6	-1%
2	COC(=O)[C@]1(C)N[C@H](CN(C)C(=O)Nc2ccc(Cl)cc2)[C@@H]2C(=O)N(Cc3ccccc3)C(=O)[C@@H]21	-0.2	-2	nt	-14	-4%
-13	CC1CN(CC(=O)NN=C(c2ccccc2)c2ccccc2)CC(C)O1 (stereo not drawn)	2.0	11	-5%	-18	-8%
6	Cn1c(=O)c(Oc2ccc(F)cc2)c(O)c2ccccc21	9.4	-3	-1%[15.4 µM]	11	-12%
7	CCCN1CCN(C(=O)Cn2ncc3ccccc32)CC1	-0.1	-3	-15%	-7	5%
5	CC(C)NC(=O)c1ccccc1-c1ccccc1	0.2	3	-3%	15	9%
2	CC(O)(CS(=O)(=O)Cc1ccccc1)C(=O)Nc1ccc(C(F)(F)F)cc1 (stereo not drawn)	0.2	5	0%	4	11%
0	CC(C)NC(=O)CSCc1c(F)cccc1Cl	0.6	5	-6%	-5	-1%
-7	CN1CCN(c2ccccc2NC(=O)c2ccc(-c3ccc(Cl)cc3Cl)o2)CC1	4.8	-5	-1%	-15	14%
11	COC(=O)CN(c1cccc(C)c1)S(=O)(=O)c1ccccc1	-2.6	9	4%	-15	-10%
-8	O=C(COC(=O)/C=C/c1ccc(F)cc1)NC1CC1	1.3	-1	-1%	-8	6%
1	Clc1ccccc1-c1nnc(-c2ccccc2Cl)o1	-1.4	24	?	7	-3%
10	O=C1CCC([N+](=O)[O-])C(c2ccccc2C(F)(F)F)N1 (stereo not drawn)	6.6	10	17%	-1	9%
5	Cc1ccc(NC(=O)COc2ccc(Br)cn2)cc1	-5.1	-6	17%	-9	-4%
3	Cc1ccc(S(=O)(=O)/N=S(\C)C(C)C)cc1 (stereo not drawn)	-2.4	-9	-5%[15.4 µM]	-3	22%
-30	CCOc1ccc(/C=N/Nc2ccc(Cl)nn2)c(O)c1	-6.7	-22	-34%[inhibitor]	-21	-1%
10	COC(=O)CCCCCCCCCC[N+]1(C)CCCCC1	-0.7	11	0%	-13	5%
-1	COC(=O)C1CCN(C(=O)COc2ccc(S(=O)(=O)N3CCOCC3)cc2Cl)CC1	-1.4	9	0%	-2	2%
5	CCn1c(COc2ccccc2)nc2ccccc21	2.2	3	-44%[inhibitor]	11	-7%

Profiles, looked up by structure. Order of screens: CtBP-E1A inh	D2 ag	Six1-Eya2 inh	gsp agonist	D2 potentiator	gsp antag
COC(=O)CCCCCCCCCC[N+]1(C)CCCCC1 as listed: 10	-0.7	11	0%	-13	5%
Clc1ccccc1-c1nnc(-c2ccccc2Cl)o1 as listed: 1	-1.4	24	?	7	-3%
CC(C)NC(=O)CSCc1c(F)cccc1Cl as listed: 0	0.6	5	-6%	-5	-1%
CCn1c(COc2ccccc2)nc2ccccc21 as listed: 5	2.2	3	-44%[inhibitor]	11	-7%
COc1ccc(-c2csc(NC(=O)c3cccc(S(=O)(=O)N4CCN(C)CC4)c3)n2)cc1 as listed: -29	0.1	?	5%	-1	-16%
